KCNQ2 inh: KCNQ2 channel blockers in CHO-K1 cells – cell-based, FluxOR thallium flux, B-score, primary screen (AID 2156) | O88943 | actives 1.1% (n = 310,000) | B-score at 10 µM | 20 min; active compounds read low; only compounds with negative scores are shown here; some inactives read as strong as hits;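 active = fluorescence ratio B-score at most minus 3 library SDs, with starting brightness B-score within 2 library SDs, cut at about -5.5 in these data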
Target sequence (O88943 whole entry, looked up): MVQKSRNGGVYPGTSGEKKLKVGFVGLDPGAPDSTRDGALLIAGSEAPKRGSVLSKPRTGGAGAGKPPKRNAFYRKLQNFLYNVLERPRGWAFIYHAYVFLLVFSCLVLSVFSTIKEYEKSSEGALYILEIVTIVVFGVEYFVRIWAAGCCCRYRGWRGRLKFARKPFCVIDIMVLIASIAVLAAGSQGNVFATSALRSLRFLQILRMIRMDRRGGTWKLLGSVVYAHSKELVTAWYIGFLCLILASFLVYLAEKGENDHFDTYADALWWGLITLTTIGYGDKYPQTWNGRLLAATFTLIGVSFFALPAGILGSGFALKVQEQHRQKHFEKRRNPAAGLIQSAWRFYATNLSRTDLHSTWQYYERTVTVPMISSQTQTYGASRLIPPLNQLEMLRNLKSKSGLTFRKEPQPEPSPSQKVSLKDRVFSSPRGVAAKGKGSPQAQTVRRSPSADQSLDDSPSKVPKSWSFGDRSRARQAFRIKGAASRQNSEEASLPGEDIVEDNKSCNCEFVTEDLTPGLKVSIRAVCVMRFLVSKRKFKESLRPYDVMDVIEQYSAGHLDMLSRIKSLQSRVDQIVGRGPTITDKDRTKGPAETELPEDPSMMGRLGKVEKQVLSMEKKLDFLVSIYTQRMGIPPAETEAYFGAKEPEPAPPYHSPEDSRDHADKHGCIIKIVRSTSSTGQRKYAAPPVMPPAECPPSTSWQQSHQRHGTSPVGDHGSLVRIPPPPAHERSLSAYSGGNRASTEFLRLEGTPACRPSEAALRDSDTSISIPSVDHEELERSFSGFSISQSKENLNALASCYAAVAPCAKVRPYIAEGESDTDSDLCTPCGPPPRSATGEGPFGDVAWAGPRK
KCNQ2 inh baseline: further read-out of KCNQ2 inh, marked with its call; B-score; measured here: initial fluorescence intensity artifact check;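 brightness before thallium and not channel activity; 0 = typical well and far values either way flag optical interference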
An asterisk follows results filed as active; i = inactive.

SMILES | KCNQ2 inh | KCNQ2 inh baseline
CCCS(=O)(=O)N1CCCC(C(=O)NCCCN2CCN(c3cccc(Cl)c3)CC2)C1 (stereo not given) | i | -1.7
CCCC(C)NC(=O)COc1ccc(S(=O)(=O)N2CCCC2)cc1 (stereo not given) | i | -0.99
O=C(Nc1cccc(CNCCc2c[nH]c3ccccc23)c1)c1ccccc1Cl | i | 2.9
COc1ccc(C(=O)NCC(=O)OC2CCCCC2=O)cc1 (stereo not given) | i | -1.6
COc1ccccc1OCCOCCOc1ccc(C)cc1Br | i | 0.85
COCCN1C(=O)c2ccc(C(=O)Nc3cccnc3)cc2C1=O | i | 0.4
Cc1ccc(NC(=S)NNC(=O)Cn2nc(C(F)F)cc2C(F)F)cc1 | i | -1.7
Cc1nn(-c2ccccc2)c(C)c1/C=N/N1CCN(c2ccccn2)CC1 | i | -0.89
CCOc1ccc(NC(=O)CCN2CCN(S(=O)(=O)c3ccc(Cl)cc3)CC2)cc1 | i | 1.2
COc1ccc(N2C(=O)CC(N3CCCCC3)C2=O)cc1 (stereo not given) | i | -1.6
Cc1cc(C)n2nc(C)c(-c3ccc(Cl)cc3)c2n1 | i | 0.47
COc1ccc2c(C)cc(N3CCN(Cc4ccccc4)CC3)nc2c1 | i | -0.05
Cc1ccc(NS(=O)(=O)Cc2ccccc2)nc1 | i | 0.05
Cc1ccc2c(C(=O)CCl)c(C)[nH]c2c1 | i | 0.47
O=C(Cn1cnc2c(nnn2Cc2ccccc2)c1=O)NCC1CCCO1 (stereo not given) | i | -0.54
c1coc(-c2nc3ccccc3nc2-c2ccco2)c1 | i | 2.1
CCOC(=O)C1CCN(S(=O)(=O)c2cccc(-c3cn4cc(Cl)ccc4n3)c2)CC1 | i | 0.54
CC(O)CNCc1ccc(-c2ccccc2)cc1 (stereo not given) | i | 0.45
Brc1ccc(C2CC(c3ccccc3)=Nc3ccccc3N2)cc1 (stereo not given) | i | 0.05
CSCCC(NC(=O)c1ccccc1Cl)C(=O)NC1CCN(Cc2ccccc2)CC1 (stereo not given) | i | -0.41
Cc1cccc(NC(=O)c2cc(NC(=O)c3ccccc3)ccc2N2CCCCC2)c1 | i | 0.79
COc1cc(C(C(=O)NC2CCCCC2)N(C(=O)Cc2c[nH]c3ccccc23)c2ccccc2C)cc(OC)c1OC (stereo not given) | i | -0.92
COc1ccc(Cl)cc1NC(=O)CSc1nc(-c2ccccc2)cc(=O)[nH]1 | i | -0.05
CC(C)c1cc(C(=O)Nc2cccc(C(F)(F)F)c2)no1 | i | -3.3
COc1cc2cc(CN(CCCO)S(=O)(=O)c3ccccc3Cl)c(=O)[nH]c2cc1OC | i | -0.54

No new results follow: an excerpt of the list.
SMILES | KCNQ2 inh | KCNQ2 inh baseline
Cc1cccc(NC(=O)c2cc(NC(=O)c3ccccc3)ccc2N2CCCCC2)c1 | i | 0.79
COc1cc(C(C(=O)NC2CCCCC2)N(C(=O)Cc2c[nH]c3ccccc23)c2ccccc2C)cc(OC)c1OC (stereo not given) | i | -0.92
COc1ccc(Cl)cc1NC(=O)CSc1nc(-c2ccccc2)cc(=O)[nH]1 | i | -0.05
CC(C)c1cc(C(=O)Nc2cccc(C(F)(F)F)c2)no1 | i | -3.3
COc1cc2cc(CN(CCCO)S(=O)(=O)c3ccccc3Cl)c(=O)[nH]c2cc1OC | i | -0.54

Later entries:
SMILES | KCNQ2 inh | KCNQ2 inh baseline
CCC(C)Sc1ccc(-c2nc3ccc(C)cn3c2NCc2ccccc2)cc1OC (stereo not given) | i | -0.31
FC(F)(F)c1cccc(N2CCN(c3ccc4nnc(-c5ccccc5)n4n3)CC2)c1 | i | 1.1
CCC(C)NC(=O)C1CCN(S(=O)(=O)c2cccc3cccnc23)CC1 (stereo not given) | i | -1.1
Cc1cc(S(=O)(=O)NCc2ccccc2)ccc1OCC(=O)N1CCOCC1 | i | -0.64
CC(C)S(=O)(=O)c1nsc2nc(=O)c(/C=C3\C=Nc4ccccc43)c(N)n12 | i | -1.5
O=c1cc(-c2ccccc2)nc(SCc2ccc(Cl)cc2)[nH]1 | i | -0.25
O=C1NCCN/C1=C\C(=O)c1cccc(Br)c1 | i | -1.6
Cc1cc(=O)n2nc(N3CCCC(C(=O)NCc4ccccc4Cl)C3)sc2n1 (stereo not given) | i | -0.92
COc1ccc(/C=N/n2cnnc2)cc1Br | i | -1.6
O=C(c1ccc(Cn2cc(Br)cn2)cc1)N1CCN(c2ccccc2)CC1 | i | -0.68
NS(=O)(=O)c1ccc(NS(=O)(=O)c2cccs2)cc1 | i | -2.1
CCN1CCN(S(=O)(=O)c2ccc(Cl)c(C(=O)NC(C)(C)C)c2)CC1 | i | 0.25
COCCCN(C(=O)c1ccccc1F)c1nc(-c2ccc(OC)cc2)cs1 | i | -1
Cc1cc(C)c(S(=O)(=O)N2CCN(c3ccc([N+](=O)[O-])c(NCc4ccco4)c3)CC2)c(C)c1 | i | -0.16
O=C1NC2(C=Cc3c(ccc4ccccc34)O2)Oc2ccccc21 (stereo not given) | i | 0.71
Nc1ccc(CCc2nc3ccccc3o2)cc1 | i | -0.12
COC(=O)c1cc(C)nc(Sc2ccccc2NC(C)=O)n1 | i | -0.01
CSc1nc(NCCCO)c2c3c(sc2n1)CN(C)CC3 | i | 2.7
O=C(c1cccnc1)N1CCc2ccccc2C1 | i | 1
CCOc1ccc(-c2c(=O)n(OCc3ccccn3)c3ccccc3[n+]2[O-])cc1 | i | -0.79
CCNC(=S)N/N=C(\C)c1ccc(N2CCOCC2)cc1 | i | 2.4
CC(/C=C1\SC(=S)N(CC(=O)N2CCN(c3ccccc3)CC2)C1=O)=C\c1ccccc1 | i | 0.95
COc1cc(COCC(O)CN2CCCCC2C)cc(OC)c1OC (stereo not given) | i | -0.98
CC1CCCN(Cc2c(O)ccc3c2O/C(=C\c2ccco2)C3=O)C1 (stereo not given) | i | 28
CCOC(=O)c1cnc(SCC(=O)c2ccccc2)nc1N | i | -0.97
The listing continues.
SMILES | KCNQ2 inh | KCNQ2 inh baseline
O=C(O)CN1C(=O)C2(OCCCO2)c2ccccc21 | i | 0.01
CN(C)N=C1c2cc(S(=O)(=O)N(C)C)ccc2-c2ccc(S(=O)(=O)N(C)C)cc21 | i | 0.54
CCCCN(Cc1cccs1)S(=O)(=O)c1csc(C(N)=O)c1 | i | -1.5
Cc1ccc(SC(C)C(=O)Nc2cccc(N(C)S(C)(=O)=O)c2)cc1 (stereo not given) | i | 0.8
CC1CCCCN1C(=O)C(=O)c1cn(CC(=O)N2CCCCCC2)c2ccccc12 (stereo not given) | i | 0.21
O=C(CN1C(=O)COc2ccccc21)NCC1CCCO1 (stereo not given) | i | 1
COC(=O)c1ccc(C(=O)OC)c(NC(=S)N2CCN(c3ccccc3F)CC2)c1 | i | 0.17
COc1cc(NS(=O)(=O)c2ccc3[nH]c(=O)oc3c2)cc(OC)c1 | i | -0.45
N#Cc1ccccc1Sc1ccccc1C(=O)N1CCOCC1 | i | -0.86
COc1ccc(CCNc2cc(-c3ccccc3)nc3ncnn23)cc1 | i | 0.84
CC(=O)N1c2ccccc2NC(=O)C1(C)C | i | -0.17
Cc1ccc(C(=O)O)cc1N1C(=O)c2cccc3cc(Br)cc(c23)C1=O | i | 1.4
Cc1ccc2nc(-c3cccnc3)oc2c1 | i | 2.2
COc1ccc(C(=O)NCC(=O)N2CCC(C)CC2)cc1OC | i | 0.15
CSc1ccc(CN2CCN(C(C)C)C(CCO)C2)cc1 (stereo not given) | i | 1.8
Cc1cc(C(=O)Nc2ccccc2N2CCOCC2)c2ccccc2n1 | -6.2* | 0.43*
Cc1ccc(NC(=O)CC(C)CC2=NS(=O)(=O)c3ccccc3N2)cc1 (stereo not given) | i | -0.2
COc1ccc(Cl)cc1S(=O)(=O)Nc1ccncc1 | i | -0.49
Cc1ccc(NC(=O)N(CCCN2CCOCC2)Cc2cccnc2)cc1C | i | 0.55
Cc1c(Cc2ccccc2)c(=O)oc2c(C)c(OC(C)C(=O)NCC3CCC(C(=O)O)CC3)ccc12 (stereo not given) | i | 1.7
CCCCN(C(=O)Cn1nnc2ccccc21)C(C(=O)NCc1ccco1)c1ccncc1 (stereo not given) | i | -2.8
Cc1csc(SCC(=O)c2c(N)n(CC(C)C)c(=O)n(C)c2=O)n1 | i | 2.5
Cc1nnc(SCC(=O)Nc2ccc3c(c2)OCO3)[nH]c1=O | i | -1.8
CCOC(=O)c1ccc(OS(=O)(=O)c2ccccc2)c(OC)c1 | i | -1.4
O=C(CSc1cccc(C(F)(F)F)c1)Nc1cc(S(=O)(=O)N2CCCC2)ccc1Cl | i | -0.42

Compound profiles, as listed above. Order of screens: KCNQ2 inh	KCNQ2 inh baseline
COc1ccc(Cl)cc1S(=O)(=O)Nc1ccncc1 reads i	-0.49
O=C(CSc1cccc(C(F)(F)F)c1)Nc1cc(S(=O)(=O)N2CCCC2)ccc1Cl reads i	-0.42
COC(=O)c1ccc(C(=O)OC)c(NC(=S)N2CCN(c3ccccc3F)CC2)c1 reads i	0.17
Cc1c(Cc2ccccc2)c(=O)oc2c(C)c(OC(C)C(=O)NCC3CCC(C(=O)O)CC3)ccc12 (stereo not given) reads i	1.7
O=C(CN1C(=O)COc2ccccc21)NCC1CCCO1 (stereo not given) reads i	1

Next section:
SMILES | KCNQ2 inh | KCNQ2 inh baseline
Cc1coc2c(C)c3oc(=O)cc(-c4ccccc4)c3cc12 | i | -2
Cc1cccc(NS(=O)(=O)c2cc(Cl)ccc2Cl)n1 | i | -0.13
CC(=O)NC(CC(=O)NC(C)c1ccc(Cl)cc1Cl)c1ccccc1 (stereo not given) | i | 0.02
COc1ccc([C@@H]2[C@@H]3C(=O)N(C(C)(C)C)C(=O)[C@@H]3[C@]3(Cc4ccc(Cl)cc4)C(=O)N(c4ccc(OC)cc4)C(=O)N23)cc1 | i | -0.11
O=C(Cn1ccnc1)c1ccc(Cl)cc1 | i | 0.72
COC(=O)c1c(NC(=S)NNC(=O)c2ccc(Cl)s2)sc(C(=O)N(C)C)c1C | i | -0.47
O=C1CC(N2CCN(c3ccccc3F)CC2)C(=O)N1c1ccc(F)cc1 (stereo not given) | i | -0.03
O=C(Nc1ccc(S(=O)(=O)N2CCOCC2)cc1)c1ccccc1F | i | 0.03
CN(C)c1ccc(-c2nc3cnccn3c2Nc2ccc3c(c2)OCCO3)cc1 | -6.4* | -0.23*
Cc1ccccc1NC(=S)N=Nc1c(O)n(C)c2ccc(S(=O)(=O)N3CCOCC3)cc12 | i | 0.02
O=C(/C=C/c1ccco1)N(Cc1cccc(F)c1)C1CCS(=O)(=O)C1 (stereo not given) | i | 0.66
COCCSc1nnc(NC(=O)CCS(=O)(=O)c2ccccc2)s1 | i | -0.92
COc1cccc(CC(=O)Nc2nc(C)cs2)c1 | i | -0.66
O=S1(=O)N=CN(Cc2cccc(F)c2)c2ccccc21 | i | 2.3
Cc1ccc(C2(C)CC(C)(C)N(C(=O)CSc3nnc(C)s3)c3ccccc32)cc1 (stereo not given) | i | -3
Nc1nc(SCC(=O)O)[nH]c(=O)c1NC(=O)c1ccccc1F | i | 1.3
COc1ccc(NC(=S)NCCc2ccc(F)cc2)c(OC)c1 | i | -1.7
O=S(=O)(c1ccc2nc(SCc3ccc(Cl)cc3)[nH]c2c1)N1CCOCC1 | i | 0.07
CCOC(=O)[C@@H]1[C@H]2COc3ccc(Br)cc3[C@H]2N2C(=O)N(c3ccc(Br)cc3)C(=O)[C@]12C | i | -1.3
COc1cc(C)ccc1Oc1nc(-c2ccccc2O)nc2ccccc12 | i | 1.3
O=C(CN1CCCCC1)N1CCc2ccccc21 | i | 0.65
Cc1ccsc1/C=N/NC(=O)CO | i | -1.2
CCOC(=O)c1cnc(-n2nc(C)cc2C)nc1NCCc1ccccc1 | i | 0.23
CCN(CC)S(=O)(=O)c1ccc2oc(Nc3ccc(OC)cc3OC)nc2c1 | i | 0.07
CCCn1c(=O)c(C(=O)NNS(=O)(=O)c2ccc(NC(=O)OC)cc2)c(O)c2ccccc21 | i | -0.94

An excerpt of these results, with values under each structure.
Every second line gives: KCNQ2 inh	KCNQ2 inh baseline
- Cc1ccsc1/C=N/NC(=O)CO
→ i	-1.2
- COCCSc1nnc(NC(=O)CCS(=O)(=O)c2ccccc2)s1
→ i	-0.92

(more compounds)
SMILES | KCNQ2 inh | KCNQ2 inh baseline
Cc1ccc2cc(CCNC(=O)c3ccc4c(c3)OCO4)c(=O)[nH]c2c1C | i | -0.61
CC(=O)c1ccc(OC(=O)C(CCS(C)(=O)=O)N2C(=O)c3ccccc3C2=O)cc1 (stereo not given) | i | -0.04
COc1cccc(OC)c1OCCN(C)C | i | -0.09
CN(C(=O)COc1ncnc2c1cnn2-c1ccccc1)C1CCCCC1 | i | 2
O=C(O)c1cccc(NS(=O)(=O)c2ccc(NC(=O)c3ccco3)cc2)c1 | i | 4.9
O=[N+]([O-])c1cc(C(F)(F)F)cc([N+](=O)[O-])c1NN=C1CCCCC1 | i | -0.3
C=CCNC(=O)CN1CCC(c2nc3ccccc3[nH]2)CC1 | i | -0.37
COc1ccc(S(=O)(=O)N2CCOCC2)cc1NC(=O)CCNC(=O)c1ccc(Br)cc1 | i | -1.5
COc1cccc(N2CCN(C(=O)C3CCN(S(=O)(=O)c4ccc5c(c4)oc(=O)n5C)CC3)CC2)c1 | i | 0.6
Cc1ccc(C(=O)N/C(=C\c2cccs2)C(=O)N2CCOCC2)cc1C | i | 1.3
O=C(/C=C/c1ccco1)N(c1ccccn1)c1ccccn1 | i | 4.8
COc1ccc(OCCCC(=O)Nc2cccnc2)cc1 | i | 0.22
O=C(NCC1CCCO1)c1nc2c(nnn2Cc2ccc(F)cc2)c(=O)[nH]1 (stereo not given) | i | -0.39
Cc1ccc(CC2C(=O)N(c3cc(Cl)ccn3)C(=O)C2C)cc1 (stereo not given) | i | -1.2
Cc1cccc(-n2c(O)c(C=Nc3ccccc3)c3ccccc3c2=O)n1 | i | -0.58
C=CCNC(=S)NC1CC(C)(C)NC(C)(C)C1 | i | -0.55
OCCC1CN(CCCc2ccccc2)CCN1CCc1ccccc1 (stereo not given) | i | 1.5
CCOC(=O)N1CCN(C(=O)C(C)NC(=O)c2ccco2)CC1 (stereo not given) | i | -1.4
Cn1ccnc1C1CCCCN1C(=O)c1cc(COc2ccc(F)cc2F)on1 (stereo not given) | i | -1.1

An excerpt; rates above refer to the full screens.
